# Screening data from PubChem BioAssay.
# HNF4A DNA FP = change in binding of human HNF4 alpha to DNA; hit rate 0.3% among 360,000; AID 1224865; P41235; activity change, % at 10 µM; HNF4a-FITC DNA binding, fluorescence polarization, 1 h; in the data active means activity change above about 30%, passing the limit was not always enough;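 further: controls were the assay level and a saturating level of protein; the project sought stronger binding though the title names inhibitors; some compounds called inactive have numbers as strong as hits; positive values seem to mean higher polarization but the record does not say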
# Target sequence (P41235 whole entry, looked up): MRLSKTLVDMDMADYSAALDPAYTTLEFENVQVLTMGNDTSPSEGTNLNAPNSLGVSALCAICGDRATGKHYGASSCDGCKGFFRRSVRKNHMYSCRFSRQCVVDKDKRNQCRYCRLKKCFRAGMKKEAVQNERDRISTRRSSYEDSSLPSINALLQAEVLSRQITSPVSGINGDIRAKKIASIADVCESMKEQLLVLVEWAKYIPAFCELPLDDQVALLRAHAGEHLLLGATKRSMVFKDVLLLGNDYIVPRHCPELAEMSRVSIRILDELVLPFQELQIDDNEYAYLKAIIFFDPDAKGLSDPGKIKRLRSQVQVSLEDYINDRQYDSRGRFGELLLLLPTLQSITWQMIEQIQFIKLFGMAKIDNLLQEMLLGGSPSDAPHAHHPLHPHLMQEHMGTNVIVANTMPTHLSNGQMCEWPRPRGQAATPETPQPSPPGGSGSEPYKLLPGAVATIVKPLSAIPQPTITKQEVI
# Vif A3G = inhibitors of Vif binding to APOBEC3G peptide, primary screen, biochemical, TR-FRET, GST-Vif 1-94, biotin-A3G peptide, dose response retest (AID 1117319) | hit rate 0.57% among 260,000 | inhibition, %, or IC50 in µM where a hit was titrated | TR-FRET GST-Vif / biotin-A3G peptide binding; higher % means a stronger effect; test concentration not given here; strong numbers were not always called active;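 active means above the screen mean plus three standard deviations and confirmed in dose response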;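 further: Vif residues 1-94 fused to GST binding biotinylated APOBEC3G peptide 110-148; 0% = full assay without inhibitor and 100% = GST in place of GST-Vif; retest series ran down from 100 µM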
# An asterisk follows results filed as active.
Structure,HNF4A DNA FP,Vif A3G
Cn1c(=NN=Cc2ccccc2OCCO)sc2ccccc21,-3.5,-11%
CCCCn1c(N)c(N(CCC(C)C)C(=O)c2c(CC)noc2C)c(=O)[nH]c1=O,3.5,-6%
COCCNC(=S)N1CCC2CC1c1c(Cl)cccc12 (stereo unspecified),8.3,-6%
COC(=O)[C@H]1C[C@@]2(O)CN(S(=O)(=O)c3ccc(C)cc3)C[C@@]2(OC(=O)NC2CCCC2)C[C@H]1C(=O)OC,-2.6,5%
Cc1c(C)c2cc(Cl)c(OCC(=O)Nc3ccccn3)cc2oc1=O,6.3,-13%
O=C(NCCc1ccc(F)cc1)C1CCC(=O)N(CC2CCCCC2)C1 (stereo unspecified),-0.1,4%
Cc1ccc(C)c(-n2nnc3ccccc3c2=O)c1,0.3,-1%
CC1=C(C(=O)N(C)C)CC(CC(=O)NC2CC2)C(=O)N1Cc1ccccc1 (stereo unspecified),3.4,-2%
CCOC(=O)Nc1ccc2nc(-c3cscn3)[nH]c2c1,3.0,-2%
O=C1CSC(=S)N1N=Cc1ccc(OCc2ccccc2)cc1,3.2,-9%
Nc1ncnc2nc(-c3ccccc3)[nH]c12,-5.4,0%
C[C@@H]1CN([C@H](C)CO)C(=O)CCCn2nncc2CO[C@H]1CN(C)S(=O)(=O)c1ccccc1,-5.0,4%

# (listing goes on)
Structure,HNF4A DNA FP,Vif A3G
Cc1ccc(-c2nc3c4ccccc4ccn3c2Cc2ccccc2)cc1,3.5,3%
O=C(O)c1ccccc1C(=O)OC1CC2CCC1C2 (stereo unspecified),0.8,0%
COc1ccc(-c2ccc(CN3C(C(C)C)C(=O)N(Cc4cn(Cc5ccco5)nn4)CCS3(=O)=O)cc2)cn1 (stereo unspecified),0.0,5%
CCOc1ccc(NC(=O)c2ccc(F)c(S(=O)(=O)N3CCCC3)c2)cc1,4.9,-3%
CC1=C(C(=O)N2CCOCC2)CC(CC(=O)NCCN2CCOCC2)C(=O)N1CCC1=CCCCC1 (stereo unspecified),-0.8,4%
CC(=O)c1ccc(Nc2nc(-c3sc(C)nc3C)cs2)cc1,-2.3,-2%
CCOC(=O)Nc1ccc2c(c1)N(C(=O)CN(C)C)c1ccccc1S2,2.9,1%
Nc1cc(C(=O)N2CCN(c3cccc(Cl)c3)CC2)ccc1N1CC2CC(C1)c1cccc(=O)n1C2 (stereo unspecified),0.2,-4%
CC(C)Cn1c(SCC(=O)NC2CC2)nc2ccc(Cl)cc2c1=O,1.0,-23%
C=C(c1cn(C(C)=O)c2ccccc12)c1cn(C(C)=O)c2ccccc12,-0.7,3%
Cc1cc(C)cc(NC(=O)C2CCCCN2S(=O)(=O)c2ccccc2)c1 (stereo unspecified),0.4,4%
C[C@@H]1CN([C@@H](C)CO)C(=O)c2cc(Br)cnc2O[C@H]1CN(C)C(=O)C1CCCCC1,3.4,-1%

# The list goes on:
Structure,HNF4A DNA FP,Vif A3G
Cc1ccccc1CN(C)C[C@H]1OCc2cnnn2CCCC(=O)N([C@@H](C)CO)C[C@@H]1C,0.6,-1%
O=C1NC(Cc2ccc(O)cc2)c2nc3ccc(Br)cc3c(=O)n2-c2ncccc21 (stereo unspecified),3.8,6%
Cc1ccc(S(=O)(=O)N2CCCCC2)cc1NC(=O)CN1CCCC1c1cccs1 (stereo unspecified),-0.1,6%
COc1cccc(S(=O)(=O)N(C)C[C@@H]2OCc3cnnn3CCCC(=O)N([C@H](C)CO)C[C@H]2C)c1,-3.7,-4%
CN1C(=O)CCS(=O)(=O)C1c1ccc(Cl)c(Cl)c1 (stereo unspecified),-0.2,9%
C[C@H]1CN([C@@H](C)CO)C(=O)c2cc(Br)cnc2O[C@H]1CN(C)Cc1ccc(Oc2ccccc2)cc1,-0.7,-8%
CCCn1c(SCC(=O)N(C)C2CCCCC2)n[nH]c1=O,1.6,-3%
COc1ccc(S(=O)(=O)N2CCCCCC2)cc1C(=O)N1CCN(C(C)=O)CC1,4.0,2%
COc1ccc(C#Cc2cnc3c(c2)C(=O)N([C@@H](C)CO)C[C@@H](C)[C@@H](CN(C)CC2CCOCC2)O3)cc1,2.5,-11%
COc1ccccc1C(=O)C1CCCN(C(=O)c2ccc(Cl)cc2)C1 (stereo unspecified),1.5,5%
COc1ccc(C(O)c2cnc(C)n2Cc2ccccc2)cc1 (stereo unspecified),0.0,-6%
O=C(Nc1ccn(CCCN2CCN(Cc3cccc4ccccc34)CC2)c(=O)n1)OCc1ccccc1,1.8,4%

# Later entries.
Structure,HNF4A DNA FP,Vif A3G
COc1cccc(NC(=O)N(C)C[C@H]2Oc3ncc(Br)cc3C(=O)N([C@H](C)CO)C[C@H]2C)c1,2.8,-3%
O=C(NC(Cc1ccccc1)C(=O)N1CCN(c2ccc(F)cc2)CC1)c1ccccc1 (stereo unspecified),-0.6,-3%
C[C@@H]1CN([C@@H](C)CO)C(=O)c2cc(NC(=O)Nc3ccccc3)ccc2O[C@@H](C)CCCCO[C@H]1CN(C)C(=O)Nc1ccc(C(F)(F)F)cc1,-2.6,34%
COc1ccc(CN(C)C[C@@H]2OCCCC[C@@H](C)Oc3ccc(N(C)C)cc3C(=O)N([C@H](C)CO)C[C@@H]2C)cc1,-4.8,6%
CCCCN1CC(C)(C)[C@H](CC(=O)NC)C1=O,3.5,-5%
CC(C)C1C(=O)N(Cc2cn(Cc3ccco3)nn2)CCS(=O)(=O)N1Cc1ccc(-c2ccc(Cl)cc2)cc1 (stereo unspecified),-0.8,-4%
COc1ccc(CN(C)C(=O)CNC(=O)c2sc3ccccc3c2Cl)c(OC)c1,6.0,0%
CCc1ccccc1NC(=O)C1CCN(S(=O)(=O)c2ccc(N3CCCC3=O)cc2)CC1,-1.7,-2%
COc1ccc(/C=C(/NC(=O)c2ccco2)C(=O)NCc2ccco2)cc1,2.6,-2%
CCc1sc(C(=O)N(CCOC)c2c(N)n(Cc3ccccc3)c(=O)[nH]c2=O)cc1C,0.7,-6%
Cc1cc(SCC(=O)N2c3ccccc3NC(=O)CC2C)nc2ccccc12 (stereo unspecified),1.3,-158%
COc1cc2c(=O)n(C)c3ccccc3c2cc1OC,0.2,-16%

# In the list so far, these have an aryl methoxy group.
Structure,HNF4A DNA FP,Vif A3G
COc1ccc(-c2ccc(CN3C(C(C)C)C(=O)N(Cc4cn(Cc5ccco5)nn4)CCS3(=O)=O)cc2)cn1 (stereo unspecified),0.0,5%
COc1cccc(S(=O)(=O)N(C)C[C@@H]2OCc3cnnn3CCCC(=O)N([C@H](C)CO)C[C@H]2C)c1,-3.7,-4%
COc1ccc(S(=O)(=O)N2CCCCCC2)cc1C(=O)N1CCN(C(C)=O)CC1,4.0,2%
COc1ccc(C#Cc2cnc3c(c2)C(=O)N([C@@H](C)CO)C[C@@H](C)[C@@H](CN(C)CC2CCOCC2)O3)cc1,2.5,-11%
COc1ccccc1C(=O)C1CCCN(C(=O)c2ccc(Cl)cc2)C1 (stereo unspecified),1.5,5%
COc1ccc(C(O)c2cnc(C)n2Cc2ccccc2)cc1 (stereo unspecified),0.0,-6%
COc1cccc(NC(=O)N(C)C[C@H]2Oc3ncc(Br)cc3C(=O)N([C@H](C)CO)C[C@H]2C)c1,2.8,-3%
COc1ccc(CN(C)C[C@@H]2OCCCC[C@@H](C)Oc3ccc(N(C)C)cc3C(=O)N([C@H](C)CO)C[C@@H]2C)cc1,-4.8,6%
COc1ccc(CN(C)C(=O)CNC(=O)c2sc3ccccc3c2Cl)c(OC)c1,6.0,0%
COc1ccc(/C=C(/NC(=O)c2ccco2)C(=O)NCc2ccco2)cc1,2.6,-2%
COc1cc2c(=O)n(C)c3ccccc3c2cc1OC,0.2,-16%

# Continued:
Structure,HNF4A DNA FP,Vif A3G
CC(=O)Nc1ccc(S(=O)(=O)CC(=O)CS(=O)(=O)c2ccc(NC(C)=O)cc2)cc1,-0.4,12%
COc1ccc(/C=C/C(=O)Nc2ccc(C(C)=O)cc2)cc1S(=O)(=O)N1CCOCC1,1.3,-3%
O=C(CC1CC2CCC1C2)N1CCN(S(=O)(=O)c2ccc(F)cc2)CC1 (stereo unspecified),3.1,-4%
COc1ccc([C@H]2N[C@]3(CCCN(Cc4ccc(F)cc4)C3=O)[C@H]3C(=O)N(Cc4ccccc4)C(=O)[C@@H]23)cc1,0.0,3%
CCCCCCNC(=O)OC12CN(C(=O)OC(C)C)N(C(=O)OC(C)C)CC1(O)CN(S(=O)(=O)c1ccc(C)cc1)C2 (stereo unspecified),2.9,0%
COc1ccc(-c2cc3nc(-c4ccccc4)cc(N4CCN(C(C)=O)CC4)n3n2)cc1,-3.2,-1%
Cc1ccc(N(CC(=O)NC(C)(C)C)C(=O)CCC(=O)Nc2ccccn2)c(C)c1,-0.9,-4%
O=C(COc1ccc(S(=O)(=O)N2CCCC2)cc1[N+](=O)[O-])N1CCCCC1,3.5,-5%
CC1(C)CC(=O)C=C(c2n[nH]nc2C2=CCCCC2)C1,2.9,1%
COc1ccc(CCN2CC(C(=O)NCc3cnn(C)c3)CCC2=O)cc1 (stereo unspecified),1.3,7%
Cc1ccc(NC(=O)COC(=O)c2cccc(S(=O)(=O)N3CCCCCC3)c2)cc1,-1.7,8%
Cc1ccc(N(CC(=O)NC(C)(C)C)C(=O)CCC(=O)Nc2ccccn2)cc1,2.7,3%

# Following part
Structure,HNF4A DNA FP,Vif A3G
Cc1csc(SCC(=O)Nc2ccc(C)c(S(=O)(=O)N(C)C)c2)n1,-2.9,4%
COc1ccc(-c2ccc(CN3C(C(C)C)C(=O)N(Cc4cn(CCC5OCCCO5)nn4)CCS3(=O)=O)cc2)cn1 (stereo unspecified),-5.7,7%
COc1ccc(Cl)cc1NC(=O)CSc1nc2[nH]ncc2c(=O)[nH]1,0.3,1%
CCOc1ccc(C(=O)CCC(=O)NN2CCCCC2)cc1,-1.8,-1%
C[C@H]1CN([C@@H](C)CO)C(=O)CCCn2nncc2CO[C@@H]1CN(C)C(=O)c1ccccc1,-1.3,-8%
C[C@H]1CN([C@@H](C)CO)C(=O)c2cc(/C=C/c3ccccc3)cnc2O[C@H]1CN(C)C(=O)c1cccc(F)c1,-9.0,7%
COc1ccccc1CNS(=O)(=O)c1c(C)cc(C)cc1C,2.7,-1%
CCC/C=C/c1ccc(CN2C(C(C)C)C(=O)N(Cc3cn(Cc4ccco4)nn3)CCS2(=O)=O)cc1 (stereo unspecified),1.7,10%
COc1cc2[nH]c(=O)c(C(=O)NCc3ccc(C)cc3)c(O)c2cc1OC,4.4,-8%
Cc1cccc(C)c1NC(=O)c1cc(S(=O)(=O)N2CCC3(CC2)OCCO3)ccc1F,-0.6,-4%
COc1ccc(-c2cnc(C(N)=O)c(=O)[nH]2)cc1,5.6,-3%
CN(C)S(=O)(=O)N1CCC(Oc2ccc(C(=O)N3CCCCCC3)cc2)CC1,-1.1,1%

# Next entries follow.
Structure,HNF4A DNA FP,Vif A3G
COc1ccc(NS(=O)(=O)c2ccc(C)c(C(=O)NCc3ccccc3CN3CCCC3)c2)cc1,0.1,-4%
O=C(COC(=O)CCc1c[nH]c2ccccc12)Nc1cccc(Cl)c1,0.9,-3%
CC(=O)NC(=Cc1ccccc1)C(=O)N1CCCC1C(=O)O (stereo unspecified),-8.2,0%
C[C@@H]1CN([C@H](C)CO)C(=O)CCCn2nncc2CO[C@H]1CN(C)C(=O)NC1CCCCC1,-2.2,-4%
Cc1ccc(OCC(=O)Nc2cccc(S(=O)(=O)N3CCCC3)c2)cc1C,-8.4,0%
CCOC(=O)CCCCCC(=O)Nc1ccc2c(c1)C(=O)N([C@@H](C)CO)C[C@H](C)[C@H](CN(C)C(=O)NC(C)C)OCCCC[C@H](C)O2,4.5,3%
COc1ccccc1C#CC1=CC(=O)C[C@H](c2ccc(F)cc2)C1,-4.5,-2%
CCN1C(=O)[C@H]2[C@@H](c3ccc(OC)cc3)N[C@]3(CCCN(Cc4ccc(F)cc4)C3=O)[C@H]2C1=O,-2.2,4%
Cc1ccc([C@H]2C[C@H](n3cc(-c4ccc(F)cc4)nn3)[C@@H](O)CN2CC2CCCCC2)cc1,1.2,-6%
C[C@H](CO)N1C[C@H](C)[C@@H](CN(C)C(=O)c2cc(-c3ccccc3)on2)OCc2cn(nn2)CCCC1=O,-6.7,3%
Cc1cc(C)cc(C(=O)NCC(=O)OCC(=O)N2CCCC2)c1,1.0,-1%
CCCCCCn1c(=O)n2n(c1=O)C[C@]1(OC(=O)NC3CCCC3)CN(S(=O)(=O)c3ccc(C)cc3)C[C@]1(O)C2,-2.4,-5%

# Other entries follow:
Structure,HNF4A DNA FP,Vif A3G
O=C(Nc1cccc(C(=O)O)c1)/C(=C\c1ccccc1)NC(=O)c1ccco1,-0.4,-5%
Cc1ccccc1/C(=N\S(=O)(=O)c1ccc(Br)cc1)Nc1ccccc1,-5.8,4%
OC(c1ccccc1)C(NCc1ccccc1)c1ccccc1 (stereo unspecified),-1.6,-5%
CCOc1ccccc1NC(=O)C1C(c2ccccc2)C1(Cl)Cl (stereo unspecified),2.3,-12%
O=S1(=O)CCN(C2CC2)CC1,0.1,-1%
CCCCC1CCC(C(=O)N(CCC(C)C)c2c(N)n(CCCC)c(=O)[nH]c2=O)CC1 (stereo unspecified),5.1,1%
C[C@H](CO)N1C[C@H](C)[C@H](CN(C)C(=O)c2ccccn2)Oc2ncc(Br)cc2C1=O,1.1,1%

# Single entries from the list:
# Entry for CCOc1ccccc1NC(=O)C1C(c2ccccc2)C1(Cl)Cl (stereo unspecified) in Vif A3G: -12%
# Entry for O=S1(=O)CCN(C2CC2)CC1 in HNF4A DNA FP: 0.1

# An excerpt, so the mix of outcomes need not match the whole.
